CtBP-E1A blk: qHTS Assay for Inhibitors of the CtBP/E1A Interaction; AlphaScreen GST-E1A/His-CtBP binding, 1536-well; stronger effect = lower value; control for the full effect not named in the record; activity change, % (test concentration not listed); 340,000 tested, 0.49% active; in the data active means activity change below about -65%; inconclusive means about -30% to -65%; inactive means above about -30%; further: on the % scale 0 is the no-effect control and ±100 the full control effect; compound concentration not given in the record
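Steps: dispense buffer (Tris pH 8.0, NaCl 300 mM, TCEP 1 mM, BSA, Tween 20); add 5X protein mix (GST-E1A, His-CtBP, 125 nM each); pin 23 nL compound; 2 h at 37 °C, dark; add 5X beads (50 ug/mL); 1 h; read.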
TRPML1 ag: qHTS for Agonists of the Human Mucolipin Transient Receptor Potential 1 (TRPML1); TRPML1-expressing cells, Ca2+ dye fluorescence, FDSS; host cell line not named in the record; reference of the full effect not given here; AID 624414, 2012; 410,000 tested, 0.12% active; activation, % (test concentration not listed); Mucolipin-1 (Homo sapiens), Q9GZU1; in the data active = activation above about 50%; inconclusive = about 30% to 50%; inactive = below about 30%; further: 0% is about no effect; the text of the record puts the active cut at 80%
Target sequence (Q9GZU1 whole entry, looked up): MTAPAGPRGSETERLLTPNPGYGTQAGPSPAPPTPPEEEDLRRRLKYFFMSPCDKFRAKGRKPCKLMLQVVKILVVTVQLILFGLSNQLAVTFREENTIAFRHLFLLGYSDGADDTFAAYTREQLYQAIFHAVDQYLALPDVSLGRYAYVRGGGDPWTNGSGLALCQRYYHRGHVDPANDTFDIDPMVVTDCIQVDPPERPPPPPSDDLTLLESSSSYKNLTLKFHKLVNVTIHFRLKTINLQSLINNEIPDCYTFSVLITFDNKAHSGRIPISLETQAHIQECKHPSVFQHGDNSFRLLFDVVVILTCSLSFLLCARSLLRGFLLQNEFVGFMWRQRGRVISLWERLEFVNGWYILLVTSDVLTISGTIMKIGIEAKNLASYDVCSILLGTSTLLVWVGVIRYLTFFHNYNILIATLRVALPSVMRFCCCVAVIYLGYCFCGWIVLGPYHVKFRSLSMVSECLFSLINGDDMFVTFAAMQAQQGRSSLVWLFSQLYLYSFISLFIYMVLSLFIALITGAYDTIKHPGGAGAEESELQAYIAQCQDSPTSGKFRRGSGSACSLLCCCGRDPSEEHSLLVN
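Kinetic FDSS Ca2+ read in Tet-induced TRPML1-DL cells (ABD Ca8 dye plus quencher, 45-90 min RT loading): baseline, then compound, then 110 s agonist window; EC80 agonist 54-4 at 4uM final added afterwards for a 110 s antagonist window.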
PINK1 expr mod: A Quantitative High throughput Screen to Identify Chemical Modulators of PINK1 Expression; PINK1 immunofluorescence, high-content cytometry, 24 h; Potency, µM (series often up to 76.6 µM), for the others: top-dose activation (PINK1 increase), actives largely listed as activators; 410,000 tested, 0.2% active; active = well fitted activation curve with a large enough effect; inconclusive = small, poorly fitted or top-dose-only effect; inactive = flat fitted curve, though single readings scatter; cell line not stated here;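 further: potency means the concentration at half of the fitted maximal effect; % of control where 0% means no effect; nearly all actives have a fitted effect of over 65% in size; a mitochondrial uncoupler was the plate control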
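PINK1 protein, normally rapidly degraded, was detected by immunofluorescence after 24 hour compound treatment of a stable cell line. Titration data (5 concentrations) came from laser-scanning cytometry, with CCCP-treated wells as controls.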
TRPML1 blocker: qHTS for Inhibitors of the Human Mucolipin Transient Receptor Potential 1 (TRPML1). Mucolipin-1 (Homo sapiens), Q9GZU1. TRPML1-inducible cells, Ca2+ dye fluorescence, FDSS; stronger effect = lower value; inhibition of EC80 agonist-evoked calcium signal. activity change, negative = inhibition, % (test concentration not listed). 390,000 tested, 0.02% active; in the data active means activity change below about -50%; inconclusive means about -30% to -50%; inactive means above about -30%;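 further: stimulus is agonist 54-4 at its EC80 concentration; on the % scale 0 is the no-effect control and ±100 the full control effect; compound concentration not given in the record; the text of the record puts the active cut at -80%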
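Calcium fluorescence in TRPML1-DL cells induced overnight with Tet: a 110 s read after compound pin addition, then a 110 s antagonist read after challenge with 54-4 at 4 uM final (EC80).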
Six1-Eya2 inh: qHTS Assay for Inhibitors of the Six1/Eya2 Interaction; activity change, % (no concentration beside the values); Homeobox protein SIX1 (Homo sapiens) + Protein phosphatase EYA2 (Homo sapiens), …; 360,000 tested, 0.56% active; AID 651725, 2012; AlphaScreen GST-Six1/His-Eya2 binding, biochemical; stronger effect = lower value; control for the full effect not named in the record; in the data active = activity change below about -65%; inconclusive = about -30% to -65%; inactive = above about -30%; further: on the % scale 0 is the no-effect control and ±100 the full control effect; compound concentration not given in the record
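GST-Six1 + His-Eya2 (5X stock: 250/500 nM); Tris pH 8.0, 300 mM NaCl, 0.05% BSA, 0.02% Tween 20; GSH donor/Ni acceptor beads; 1 h 37 °C dark; AlphaScreen readout.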
D2 ag: Beta-Arrestin HTS for Positive Allosteric Modulators of the Human D2 Dopamine Receptor: Agonists; D(2) dopamine receptor (Homo sapiens), P14416; DiscoveRx PathHunter D2 beta-arrestin, luminescence, 90 min; 100% = 57 uM dopamine signal; activation, % (test concentration not listed); 360,000 tested, 0.084% active; AID 624465, 2012; in the data active = activation above about 40%; inconclusive = about 15% to 40%; inactive = below about 15%; further: compound concentration not given in the record; the text of the record calls up to 30% inactive
Target sequence (P14416 whole entry, looked up): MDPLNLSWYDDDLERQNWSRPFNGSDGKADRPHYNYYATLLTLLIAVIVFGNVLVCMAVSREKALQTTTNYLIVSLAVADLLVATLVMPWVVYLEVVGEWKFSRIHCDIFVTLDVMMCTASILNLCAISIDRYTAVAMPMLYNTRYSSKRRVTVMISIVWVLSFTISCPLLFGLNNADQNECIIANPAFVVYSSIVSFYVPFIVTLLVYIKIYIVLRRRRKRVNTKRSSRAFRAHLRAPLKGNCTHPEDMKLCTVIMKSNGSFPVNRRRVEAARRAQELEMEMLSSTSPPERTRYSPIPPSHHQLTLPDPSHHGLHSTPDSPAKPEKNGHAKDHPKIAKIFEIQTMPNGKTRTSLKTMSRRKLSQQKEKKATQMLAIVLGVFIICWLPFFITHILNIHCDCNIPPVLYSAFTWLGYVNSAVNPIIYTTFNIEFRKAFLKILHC
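DiscoveRx PathHunter D2 beta-arrestin cells (2,100/well) attached overnight, then compound-stimulated 90 min at 37 C in HBSS/10 mM HEPES/0.1% Tween-20 buffer; beta-galactosidase complementation read by luminescence after 1 h at ambient temperature. Dopamine 57 uM final (EC100) as control.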
Starred values were filed as active, the others as inactive; ? = inconclusive; nt = not tested or not shown.

Values run as follows: CtBP-E1A blk	TRPML1 ag	PINK1 expr mod	TRPML1 blocker	Six1-Eya2 inh	D2 ag
- Cc1ccnc(NC(=O)CC(NC(=O)c2ccccc2Cl)c2ccccc2)c1 (configuration not stated)
  7	-0.6	3.6%	3	0	-0.9
- O=C1c2ccccc2C(=O)N1CCC#C/C=C1\c2ccccc2C(=O)N1c1ccccc1
  6	-0.4	-1.7%	-5	-7	2.6
- COCCCNC(=O)c1cc(C(=O)c2ccccc2Br)c[nH]1
  -21	-0.1	-0.2%	-13	-3	-4.7
- COc1ccc(-n2nc(C(=O)N3CCCCC3C)c3c4ccccc4n(C)c3c2=O)cc1Cl (configuration not stated)
  nt	0.2	1.2%	-12	nt	nt
- CCCC(=O)N(c1ccccc1)C1C=CS(=O)(=O)C1 (configuration not stated)
  1	0.4	1.8%	6	2	1.9
- COCC(=O)N1CCC2CC1c1c(-c3ccc(C(F)(F)F)cc3)cccc12 (configuration not stated)
  -6	1.4	0.0%	14	-1	-0.6
- Cc1nc(N2CCOCC2)[nH]c(=O)c1C(O)C(Cl)(Cl)Cl (configuration not stated)
  nt	0.0	0.4%	8	5	-4.3
- COCCNC(=O)C1(C)Cc2c(-c3ccc(NC(C)=O)cc3)ccnc2O1 (configuration not stated)
  -3	0.2	1.1%	-5	2	-5.0
- O=C(Nc1nc(-c2cccnc2)cs1)c1ccc([N+](=O)[O-])cc1
  -6	-1.0	5.1%	2	-2	0.1
- CC(NC(=O)COc1ccc(/C=N/NC(=O)CO)cc1)c1ccccc1 (configuration not stated)
  2	0.1	2.8%	12	1	-2.6

Ordered by value in D2 ag (highest first): some entries from above
Structure,D2 ag
O=C1c2ccccc2C(=O)N1CCC#C/C=C1\c2ccccc2C(=O)N1c1ccccc1,2.6
O=C(Nc1nc(-c2cccnc2)cs1)c1ccc([N+](=O)[O-])cc1,0.1
COCC(=O)N1CCC2CC1c1c(-c3ccc(C(F)(F)F)cc3)cccc12 (configuration not stated),-0.6
CC(NC(=O)COc1ccc(/C=N/NC(=O)CO)cc1)c1ccccc1 (configuration not stated),-2.6
Cc1nc(N2CCOCC2)[nH]c(=O)c1C(O)C(Cl)(Cl)Cl (configuration not stated),-4.3
COCCCNC(=O)c1cc(C(=O)c2ccccc2Br)c[nH]1,-4.7

(next part)
Values run as follows: CtBP-E1A blk	TRPML1 ag	PINK1 expr mod	TRPML1 blocker	Six1-Eya2 inh	D2 ag
- O=C(CNC(=O)c1ccco1)OCc1ccc(Br)cc1
  7	-0.2	0.3%	8	1	0.8
- O=C(COc1ccc2ccc(=O)oc2c1)NCc1ccccn1
  nt	-0.1	0.5%	10	-1	2.3
- CCc1cccc2c1NC(=O)C2=O
  3	-0.8	1.9%	6	9	-9.0
- COC(=O)C1CCN(Cc2nnc(-c3ccccc3)o2)CC1
  10	0.5	2.4%	1	-1	?
- O=C(NCCO)/C(=C\c1ccc(Br)cc1)NC(=O)c1cccs1
  -1	0.5	3.5%	31	7	-7.8
- OC(c1cccc(Cl)c1)c1nc(-c2ccoc2)cs1 (configuration not stated)
  -20	0.3	3.8%	nt	0	-5.8
- Cc1ccc(C(=O)N(CC(=O)NC2CCCC2)c2ccc3c(c2)OCCO3)s1
  nt	2.5	1.1%	32	-1	-2.6
- COc1cccc(CN(C)CC(=O)Nc2ccccc2N2CCOCC2)c1OC
  -2	-0.3	4.0%	-1	1	6.3
- O=C(Nc1ccc(Cl)cc1)c1ccc(Br)cc1F
  nt	4.0	2.5%	19	5	3.6
- CC(C)[C@H](NC(=O)c1ccccc1)C(=O)OCC(=O)c1ccccc1F
  -8	0.6	-0.3%	8	-8	0.0
- O=C(Nc1cccc2cccnc12)OCc1ccccc1
  nt	3.2	-0.8%	1	nt	nt
- CCCCOc1ccc(N(CC(=O)NC2CCCCC2)C(=O)CCC(=O)Nc2ccccn2)cc1
  -9	-0.4	1.5%	-10	1	-2.6
- O=C(Cn1ncc2c([nH]c3ccccc32)c1=O)N1CCN(c2ccccn2)CC1
  -10	1.2	4.8%	-6	4	0.8
- CCOC(=O)c1[nH]c2c(c1C)C(=O)CC(c1ccc(OC)c(OC)c1)C2 (configuration not stated)
  1	0.9	2.0%	6	0	0.5
- COc1ccc(Cc2nnc(SC)[nH]c2=O)cc1OC
  0	0.1	2.7%	7	1	-5.5
- CC1CC(C)(C)NC(=S)N1CCC(=O)N1CCc2ccccc2C1 (configuration not stated)
  -28	0.7	0.6%	-7	-2	-4.0
- Cc1ccc(C(=O)Nc2ccncc2)c(C)c1
  0	-0.8	-0.5%	40	5	6.3
- CC1=C(C(=O)N2CCOCC2)C(c2cccc3ccccc23)NC(=S)N1 (configuration not stated)
  14	0.2	-0.2%	38	0	-4.3
- FC(F)(F)c1cc(-c2ccccc2)nc2cc(-c3ccc(Br)cc3)nn12
  nt	-0.5	2.0%	-20	nt	nt
- COc1ccc(CCNc2nc(C)nc3c2nnn3Cc2ccccc2)cc1
  11	-0.1	13%	3	0	-8.2
- C/C(NC1CCCCC1)=C(/C#N)C(=O)NCCN1CCOCC1
  8	0.4	1.2%	2	-6	-2.2
- COCCCNC(=O)N1CCN(c2nnc(C)c3c(C)n(-c4ccc(Cl)cc4)nc23)CC1
  nt	1.4	-0.8%	-13	nt	nt
- O=C(O)c1ccc(/C=C2\SC(=Nc3ccccc3)N(c3ccccc3)C2=O)cc1
  nt	2.6	0.3%	0	-2	-3.3
- CC#CCCCC(=O)Nc1ccccc1C(=O)O
  10	-1.3	-1.3%	-3	3	4.7
- Cc1ccc(NC(=O)Cn2cnc3c2c(=O)n(C)c(=O)n3C)cc1C
  nt	0.4	2.0%	1	nt	nt
- CC(C)S(=O)(=O)C1=NSC2=NC(=O)/C(=C\c3ccc(OC(=O)c4ccco4)cc3)C(=N)N21
  nt	0.8	0.2%	5	-21	-1.4
- Cc1ccc(N(Cc2ccccc2O)C(=O)c2ccccc2F)cc1
  -4	2.3	0.0%	0	0	-0.3
- COc1ccc(-c2nc3ccccc3o2)cc1NC(=O)C(C)(C)Oc1ccc(Br)cc1
  nt	0.9	0.5%	15	nt	nt
- COc1ccc(-c2nc3scc(CCNC(=O)c4cccc(Br)c4)n3n2)cc1
  nt	-0.7	2.6%	-10	nt	nt
- COc1ccc(-c2nc(=S)c3ccc4ccccc4c3[nH]2)cc1
  3	0.1	6.5%	1	6	-2.4

3 compounds already listed, arranged by molecular weight, highest first:
Values run as follows: CtBP-E1A blk	TRPML1 ag	PINK1 expr mod	TRPML1 blocker	Six1-Eya2 inh	D2 ag
- CC(C)S(=O)(=O)C1=NSC2=NC(=O)/C(=C\c3ccc(OC(=O)c4ccco4)cc3)C(=N)N21
  nt	0.8	0.2%	5	-21	-1.4
- COCCCNC(=O)N1CCN(c2nnc(C)c3c(C)n(-c4ccc(Cl)cc4)nc23)CC1
  nt	1.4	-0.8%	-13	nt	nt
- COc1ccc(-c2nc3scc(CCNC(=O)c4cccc(Br)c4)n3n2)cc1
  nt	-0.7	2.6%	-10	nt	nt

The list goes on.
Values run as follows: CtBP-E1A blk	TRPML1 ag	PINK1 expr mod	TRPML1 blocker	Six1-Eya2 inh	D2 ag
- CC1Cc2ccccc2N1C(=O)C1CCCN(S(=O)(=O)c2cccc3nsnc23)C1 (configuration not stated)
  -13	-0.7	2.7%	18	-19	0.2
- O=C(O)C1=C[C@@H](C2CCCCC2)C[C@@H](OCc2ccc(CO)cc2)O1
  7	0.0	1.8%	-15	-2	-0.2
- NC(=O)NC(=O)CSc1ccccc1
  12	0.5	1.8%	31	-4	2.1
- CCOc1cc(OCC)cc(C(=O)N2CCC[C@@H]2C(=O)N2CCC[C@H]2C(=O)NCc2ccncc2)c1
  1	-0.3	1.1%	nt	2	nt
- CCc1c(C)sc(NC(=S)N2CCN(C(=O)C3CCCO3)CC2)c1C(=O)OC (configuration not stated)
  -15	3.0	2.7%	41	-10	0.2
- CCN(CCCNC(=O)c1cc(Nc2ccc(OC)cc2OC)nc2ccccc12)c1cccc(C)c1
  nt	2.8	1.1%	26	nt	nt
- Cn1c(SCC(=O)Nc2ccc(C(N)=O)cc2)nc2c(c1=O)SCC2
  -2	0.0	-0.3%	8	-19	-3.7
- CSc1nsc(SCC(=O)Nc2ccc(NC(C)=O)cc2)n1
  -3	0.1	0.1%	-4	1	-0.3
- COc1ccccc1CN1CC(C(=O)NCc2ccc(SC)cc2)CCC1=O (configuration not stated)
  1	0.7	0.5%	2	-14	-0.7
- CCCCCCOc1ccc(/C=c2\s/c(=C(/C#N)C(=O)NCc3ccco3)n(-c3ccccc3)c2=O)cc1
  4	0.7	14%	-12	-7	-0.9
- CC(C)(C)C(=O)NCCc1nc2ccccc2n1CC(=O)c1ccc(Cl)cc1
  -8	-0.3	0.9%	1	2	-3.1
- Cn1c(Cn2c(=O)sc3ccccc32)nnc1SCc1ccccc1F
  3	0.8	0.1%	?	-2	-1.0
- O=C(NCc1ccccc1)NC1CC2CCC(C1)N2Cc1ccco1 (configuration not stated)
  4	-0.1	1.0%	-4	2	-1.4
- Cc1c(CCO)c(=O)n(-c2ccccc2)n1S(=O)(=O)c1ccc(F)cc1
  -2	-1.2	0.7%	-7	-8	-2.9
- CN(Cc1ccccc1)C(=O)c1ccc2c(c1)N(Cc1ccccc1Cl)C(=O)c1ccccc1S2
  nt	1.7	-0.9%	5	nt	nt
- CCCN(CCC)C(=O)c1ccc2c(c1)S(=O)(=O)c1ccccc1C2=O
  -9	1.4	0.4%	1	-7	6.5

Individual results from the entries so far.
Cn1c(Cn2c(=O)sc3ccccc32)nnc1SCc1ccccc1F – PINK1 expr mod: 0.1%
CN(Cc1ccccc1)C(=O)c1ccc2c(c1)N(Cc1ccccc1Cl)C(=O)c1ccccc1S2 – TRPML1 blocker: 5
O=C(NCc1ccccc1)NC1CC2CCC(C1)N2Cc1ccco1 (configuration not stated) – TRPML1 blocker: -4
